LT uptake inh: inhibitors of anthrax lethal toxin internalization | 0.67% of 70,000 active | Cells, anthrax lethal toxin internalization, FRET ratio (460/530) | Potency, µM (series often up to 40 µM), without a hit: top-dose activity change, negative = inhibition, usual class: inhibitors; active = well fitted falling ratio curve with the 530 nm signal flat; inconclusive = other ratio curves, or a change in one channel alone; inactive = flat curves in the ratio and both channels; the % refers to the ratio; note: % is set by controls: 0 for no effect and ±100 for the full control effect; nearly all actives have a fitted effect of over 50% in size; tested in ME-180 cells; beta-lactamase reporter
Prx2 Sm inh: Schistosoma mansoni Prx2 inhibition; S. mansoni Prx2 activity coupled to TGR/GSH (TGR is thioredoxin glutathione reductase), NADPH fluorescence loss, qHTS; some inactives read as strong as hits; Potency, µM; 0.07% of 65,000 active; active means full or partial inhibition curve with a strong effect at the top dose; inconclusive means weaker partial or single-point curve; inactive means no accepted curve; note: series up to 57 µM; many of its hits are not listed in these tables
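qHTS, coupled TGR/Prx2 format; 15 min compound preincubation at RT; reaction started with H2O2 (2.5 mM aliquot); kinetic NADPH fluorescence decrease, ex 365/em 450 nm.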
* hit, by the source's call; ? = inconclusive; . = no result given; & = joins results of further samples; [ ] = another dose, or the depositor's remark. Potency is the fitted concentration of half-maximal effect.

Value order – LT uptake inh, Prx2 Sm inh
[1] O=C(NCc1ccc2c(c1)OCO2)c1ccc2c(c1)C(=O)N(Cc1cccnc1)C2=O
 : 3.8%, >57
[2] Cc1ccc(S(=O)(=O)N2CCN(S(=O)(=O)N3CCCCC3)CC2)c(C)c1
 : -4.0%, >57
[3] CC(C)C[C@@H](CC(=O)N[C@@H](CCC(=O)O)CC(=O)O)NC(=O)[C@@H]1CNCC[C@H]1NC(=O)C[C@H](CCCN)NC(=O)C[C@H](Cc1ccccc1)NC(=O)[C@@H]1CCCC[C@H]1N
 : -10.9%, >57
[4] O=C1OC(Nc2ccc3c(c2)OCO3)c2ccccc21 (configuration not stated)
 : 24.3%, ?
[5] CCCc1cc2c(n1Cc1ccco1)C(C)C1CN(C(=O)c3ccccc3)C(C)(C(=O)OC)C21 (configuration not stated)
 : 9.5%, >57
[6] Cc1ccc2[nH]c3c(=O)n(CCCN4CCOCC4)cnc3c2c1
 : -2.4%, >57
[7] Cc1cccc(NC(=O)c2cnc3scc(C)n3c2=O)c1
 : -2.1%, >57
[8] COc1ccc(OC)c(S(=O)(=O)n2cccn2)c1
 : 0.0%, >57
[9] COc1ccc(CCNC(=O)c2ccccc2NC(=O)c2ccco2)cc1OC
 : 2.3%, .
[10] O=C(CN1CCC(n2nnc3ccccc32)CC1)Nc1ccc2c(c1)CCC2
 : ?, >57
[11] CCOC(=O)CSc1nc2c(c(=O)n1-c1ccc(OCC)cc1)SCC2
 : 3.6%, >57
[12] COC(=O)Cn1c(CN2CCN(c3ccc(F)cc3)CC2)nc2c1c(=O)n(C)c(=O)n2C
 : ?, .
[13] OC1(c2ccc(F)cc2)CC2CCC(C1)N2Cc1nnnn1C1CCCC1 (configuration not stated)
 : -6.7%, >57
[14] COc1ccc(C(=O)N2CCC3(CCN(C)CC3)CC2)cc1
 : ?, >57
[15] C=C(C)CSc1nc(N)cc(=O)[nH]1
 : 0.1%, >57
[16] CC(=O)/C(C)=N\O
 : ?, >57&>57
[17] Cc1ncc(CSc2ccccc2N)c(CO)c1O
 : ?, >57
[18] O=C(COc1ccc2ccccc2c1Br)N1CCN(c2ccccn2)CC1
 : 12.6µM*, >57
[19] COc1ccc(CCNC(=O)CN(c2ccc(OC)c(OC)c2)S(C)(=O)=O)cc1
 : -4.3%, .
[20] CS(=O)(=O)N1CCN(C(=O)c2cccnc2)CC1
 : 12.7%, >57
[21] c1ccc(CNc2ncnc3nc[nH]c23)nc1
 : -19.5%, >57
[22] CCN(CC)CCOC(=O)c1cc(Cl)c(N)cc1OC
 : -21.3%&-11.8%, >57
[23] COc1ccc(CN2CCC(C(=O)N(C)CCc3ccc(OC)c(OC)c3)CC2)c(OC)c1
 : -8.7%, >57
[24] C=CC(=C)C
 : -6.3%, .
[25] C[N+]1(CCC[N+]2(C)C[C@H]3[C@H](C2)[C@H]2C=C[C@@H]3CC2)CCOCC1 (some centres not stated)
 : 2.1%[8 µM], >11.4
[26] N#CC1=C(SCC(N)=O)NC(=O)CC1c1cccc2ccccc12 (configuration not stated)
 : 4.0%, .
[27] O=C(CSc1nnc(-c2ccc(F)cc2)o1)Nc1ccc(S(=O)(=O)N2CCCCCC2)cc1
 : -17.8%, >57
[28] COc1ccc2oc(=O)c(C(=O)N3CCN(c4ccc(F)cc4)CC3)cc2c1
 : -10.4%, >57
[29] Cc1nc2c(C(=O)NCc3ccc4c(c3)OCO4)c[nH]n2c(=O)c1Cc1ccccc1F
 : -22.6%, >57
[30] COc1ccc(CC(=O)N2CCN(c3ccccn3)CC2)cc1OC
 : ?, >57
[31] CC1=C(C(=O)N2CCOCC2)C(c2ccccc2F)C2=C(CC(C)(C)CC2=O)N1 (configuration not stated)
 : -10.9%, >57
[32] O=C(Nc1ccccc1)C1CCN(c2nccs2)CC1
 : 6.8%, >57
[33] O=C1CCCC2=C1C(c1cccnc1)Nc1ccccc1N2 (configuration not stated)
 : 9.5%, .
[34] Cc1cc(N2CCOCC2)c2c(N)c(Br)cc(C)c2n1
 : ?, .
[35] O=C(CSc1nnc(-c2ccco2)o1)NCC(=O)c1ccccc1
 : ., >57
[36] CCc1ccc(S(=O)(=O)NCc2cn3cccc(C)c3n2)s1
 : 3.6%, >57
[37] CCOC(=O)CC1(C)NC(=O)c2c(C)sc(C(=O)OCC)c2N1 (configuration not stated)
 : -9.9%, >57
[38] Cc1ccc2c(c1)N(CC(=O)NCCN1CCOCC1)C(=O)CO2
 : -4.5%, >57
[39] N#Cc1nc(-c2ccc(OCc3ccc(Cl)cc3)cc2)oc1NCCCn1ccnc1
 : -2.4%, >57
[40] CCOC(=O)c1c(NC(=O)CSc2ncn[nH]2)sc(C)c1C
 : ?, >57
[41] Cc1ccc(-c2oc3ccccc3c(=O)c2O)cc1
 : ?, >57
[42] O/N=C1/CCc2cccc3cccc1c23
 : -27.2%, .
[43] O=C(Nc1ccccc1)N1CCCC2(CCNCC2)C1
 : 8.8%, >57
[44] CCOc1ccc2nc(NC(=O)c3cnccn3)sc2c1
 : -4.4%, >57
[45] C/C=C\C1=C(CO)[C@H](O)[C@H]2OC2[C@@H]1O (some centres not stated)
 : 5.1%[8 µM], .
[46] Cc1cccc(-c2nc(CS(=O)CC(=O)N3CCCCC3)c(C)o2)c1 (configuration not stated)
 : -3.1%, >57
[47] CCN(CC)c1cccc(OC2=NS(=O)(=O)c3ccccc32)c1
 : -8.0%, >57
[48] Cc1sc(NC(=O)COc2cccc(-n3cnnn3)c2)c(C#N)c1C
 : -4.3%, >57
[49] COc1ccc(NC(=O)CCCN2C(=O)CCC2=O)cc1Cl
 : -4.4%, >57
[50] O=C(O)C1C2C=CC(O2)C1C(=O)NC1CCCc2ccccc21 (configuration not stated)
 : -9.9%, >57
[51] N#CC12C(N)=NC3(OCCO3)C1(C#N)C1=C(CCC1)NC2c1ccccc1 (configuration not stated)
 : ., >57
[52] CN(Cc1cc2ccccc2[nH]c1=O)S(C)(=O)=O
 : -20.4%, >57
[53] CCN1CCN(S(=O)(=O)c2cc(C)c(OC)cc2C)CC1
 : -3.6%, >57
[54] CC(=O)Nc1ccc(S(=O)(=O)NCC2CCC(C(=O)N3CCCCCC3)CC2)cc1 (configuration not stated)
 : -6.6%, >57
[55] O=C(Cn1cnc2ccccc21)NCCCN1CCOCC1
 : 6.2%, >57
[56] CCn1cc(C(=O)N2CCn3c(nc4ccccc43)C2)c(=O)c2ccc(C)nc21
 : -11.3%, >57
[57] Nc1ncnc2nc(N3CCN(CCO)CC3)[nH]c12
 : 8.2%[8 µM], >57
[58] CC(=O)Nc1ccc(N2CCOCC2)c(C(=O)Nc2cccc(C)c2)c1
 : 7.9%, >57
[59] O=C(CN1CCN(c2ccccn2)CC1)Nc1ccc2ccccc2c1
 : -3.6%, >57
[60] O=C1N2CCSC2=NC1(Nc1ccccn1)C(F)(F)F (configuration not stated)
 : 4.3%, >57

Later entries
Value order – LT uptake inh, Prx2 Sm inh
[61] NC1=NC(c2cn(-c3ccccc3)nc2-c2cccs2)n2c(nc3ccccc32)N1 (configuration not stated)
 : -4.1%, >57
[62] COc1ccc(S(=O)(=O)NCCc2ccc(F)cc2)cc1
 : -15.1%, >57
[63] CC(=O)Nc1ccc(S(=O)(=O)N2CCN=C2C)cc1
 : 18.9%, >57
[64] O=C(c1noc2c1CCCCC2)N1CCN(C(c2ccccc2)c2ccccc2)CC1
 : 3.2%, >57
[65] CC1CCN(Cc2nc3c(c(=O)n(C)c(=O)n3C)n2Cc2c(F)cccc2Cl)CC1
 : -1.5%, >57
[66] C/C(Nc1cccc(F)c1)=C(/C#N)C(N)=O
 : 2.9%, >57
[67] O=C(c1ccccc1)N1CCN(C2CC3CCC2C3)CC1 (configuration not stated)
 : ?, >57
[68] O=C(NCc1ccc2c(c1)OCO2)c1cc2c(s1)CS(=O)(=O)C2
 : -14.3%, >57
[69] Cc1cc(NC(=O)c2ccc(Cn3nc(C)c(Br)c3C)o2)no1
 : 5.7%, >57
[70] CCOC(=O)Nc1cc(OCC)c(NC(=O)C2CC2)cc1OCC
 : 0.0%, >57
[71] O=C(c1ccccc1)c1ccc(N2CCOCC2)c(F)c1
 : -18.1%, .
[72] Cc1cc(NC(=O)COC(=O)C2CCCN2C(=O)c2cccs2)no1 (configuration not stated)
 : 6.4%, >57
[73] COc1ccc(CCNc2oc(COc3ccccc3F)nc2C#N)cc1
 : ?, >57
[74] CC1(C)Cc2ccccc2-c2nnc(SCC(=O)Nc3ccc4c(c3)OCO4)n21
 : -5.2%, >57
[75] NC(=O)CSCc1c(Cl)cccc1Cl
 : 5.0%, >57
[76] COC(=O)[C@@]1(Cc2ccc(F)cc2)[C@H]2c3cc(C(=O)N4CCCC4)n(Cc4ccccc4)c3C[C@H]2CN1C(=O)c1ccccc1
 : -9.7%, >57
[77] C[C@@H]1OC=C2[C@@H](O)[C@H]3O[C@H]3C(=O)[C@@]23[C@H]1[C@H]1C2=C([C@@H](O)[C@H]4O[C@@H]4C2=O)[C@@H]3O[C@@H]1C
 : ?, .
[78] COC(=O)c1ccccc1NC(=O)c1cccc(NC(=O)c2ccc(Br)o2)c1C
 : -28.5%, >57
[79] COc1ccccc1C(=O)C(O)c1ccccc1OC (configuration not stated)
 : 0.7%, >57
[80] CCc1nc2c(cnn2-c2ccc(Cl)cc2)c(=O)n1-c1ccc(OC)cc1
 : 5.2%, >57
[81] CC(C)COC(=O)c1ccc(NC(=O)C2C3C=CC(C3)C2C(=O)O)cc1 (configuration not stated)
 : 11.1%, >57
[82] CCCS(=O)(=O)c1c(S(=O)(=O)CCC)c2ccccn2c1C(=O)OC
 : 0.8%, .
[83] C[C@H](CCC(=O)NCC(=O)O)[C@H]1CC[C@H]2[C@H]3[C@@H](C[C@@H](O)[C@]12C)[C@]1(C)CC[C@H](O)C[C@@H]1C[C@@H]3O
 : -0.3%[3.58 µM], >57
[84] Cc1nc2cnc(Oc3ccccc3)nc2n(-c2ccccc2)c1=O
 : 3.5%, >57
[85] CN1CCN(c2ncc3nc(CCc4ccccc4)c(=O)n(C)c3n2)CC1
 : ?, >57
[86] O=C(c1ccco1)N(Cc1ccco1)c1ccc(O)cc1
 : -6.6%, >57
[87] CCOc1nc(C)ccc1-c1noc(-c2ccccc2OC)n1
 : -14.7%, >57
[88] O=C1C=C2C=C[C@H]3C[C@@]2(O1)[C@H]1CCCCN31
 : ?, >57&>57
[89] COc1cc(Cl)ccc1S(=O)(=O)n1nc(C)cc1C
 : 0.6%, >57
[90] Nn1c(SCc2cccc3ccccc23)nnc1-c1ccco1
 : -0.1%, >57
[91] Cc1nc2cncnc2n(Cc2ccc(F)cc2)c1=O
 : 1.2%, >57
[92] Cn1c(CCN2CCCCC2)nc2cc(NC(=O)Nc3ccccc3)ccc21
 : 1.4%, >57
[93] O=C(NCc1ccccc1)c1c(O)c2cccc3c2n(c1=O)CCC3
 : -5.1%, >57
[94] Cn1c(CN2CCN(c3ccc(Cl)cc3)CC2)nc2ccccc21
 : -4.0%, .
[95] COc1ccccc1N1CCN(CC(=O)Nc2c(C)n[nH]c2C)CC1
 : ?, >57
[96] Cc1nc(-c2ccccc2)cc(N2CCCC2)n1
 : -19.2%, >57
[97] CN(C)CCc1nc2ccccc2c(=O)n1-c1ccccc1
 : 9.3%, >57

Of the compounds above, 17 have an aryl methoxy group.
Value order – LT uptake inh, Prx2 Sm inh
[8] COc1ccc(OC)c(S(=O)(=O)n2cccn2)c1
 : 0.0%, >57
[9] COc1ccc(CCNC(=O)c2ccccc2NC(=O)c2ccco2)cc1OC
 : 2.3%, .
[14] COc1ccc(C(=O)N2CCC3(CCN(C)CC3)CC2)cc1
 : ?, >57
[19] COc1ccc(CCNC(=O)CN(c2ccc(OC)c(OC)c2)S(C)(=O)=O)cc1
 : -4.3%, .
[22] CCN(CC)CCOC(=O)c1cc(Cl)c(N)cc1OC
 : -21.3%&-11.8%, >57
[23] COc1ccc(CN2CCC(C(=O)N(C)CCc3ccc(OC)c(OC)c3)CC2)c(OC)c1
 : -8.7%, >57
[28] COc1ccc2oc(=O)c(C(=O)N3CCN(c4ccc(F)cc4)CC3)cc2c1
 : -10.4%, >57
[30] COc1ccc(CC(=O)N2CCN(c3ccccn3)CC2)cc1OC
 : ?, >57
[49] COc1ccc(NC(=O)CCCN2C(=O)CCC2=O)cc1Cl
 : -4.4%, >57
[53] CCN1CCN(S(=O)(=O)c2cc(C)c(OC)cc2C)CC1
 : -3.6%, >57
[62] COc1ccc(S(=O)(=O)NCCc2ccc(F)cc2)cc1
 : -15.1%, >57
[73] COc1ccc(CCNc2oc(COc3ccccc3F)nc2C#N)cc1
 : ?, >57
[79] COc1ccccc1C(=O)C(O)c1ccccc1OC (configuration not stated)
 : 0.7%, >57
[80] CCc1nc2c(cnn2-c2ccc(Cl)cc2)c(=O)n1-c1ccc(OC)cc1
 : 5.2%, >57
[87] CCOc1nc(C)ccc1-c1noc(-c2ccccc2OC)n1
 : -14.7%, >57
[89] COc1cc(Cl)ccc1S(=O)(=O)n1nc(C)cc1C
 : 0.6%, >57
[95] COc1ccccc1N1CCN(CC(=O)Nc2c(C)n[nH]c2C)CC1
 : ?, >57

Screening results deposited in PubChem BioAssay by National Center for Advancing Translational Sciences (NCATS).

Not all compounds are listed; the hit share may differ from the screen's.
